# A1 inhib: blocks A1 activity. MEF A1-2A-BIM cells, caspase-Glo luminescence, 3 h; percent of clofoctol signal, DMSO as zero. caspase activation, % (concentration not given with the values). 21,000 compounds, 0.51% hits. AID 2241;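 active = most replicate scores above 10, or exactly half above 10 with mean activity above 10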;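 note: effector caspase 3 and 7 activity cleaving a DEVD luciferin substrate; 50 nL library stock added to about 30 µL; numbers are from one replicate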
# BJeLR viability: compounds reducing viability of BJeLR cells; 30,000 compounds, 0.64% hits; AID 2275; BJeLR fibroblasts viability, CellTiterGlo ATP luminescence, 48 h; HRASV12, hTERT and SV40 LT/ST transformed; viability loss activity score, % (concentration not given with the values); in the data active = viability loss activity score above about 50%; about a fifth of its hits are not listed in these tables;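 note: higher score means fewer live cells and less ATP luminescence; stock transfer was 50 or 100 nL into about 30 µL; 0% = vehicle wells and 100% = a reference killing control; one replicate is shown; the record names a cut of 85%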
# * marks the source's active call; other numbers are inactive results; x = not tested or not shown. Not all compounds are listed; count on the stated rates, not on these rows.
Structure	A1 inhib	BJeLR viability
C[C@H]1CN([C@@H](C)CO)C(=O)c2cccc(NC(=O)c3ccncc3)c2O[C@@H]1CN(C)S(=O)(=O)c1ccccc1	x	0.8
Cc1cc(C)c(C#N)c(SCC(=O)N2CCCCC2)n1	1.2	11
Cc1cccn2c(=O)c3cc(C(=O)N4c5ccccc5CC4C)n(C)c3nc12 (centres undefined)	0.3	1.9
Cc1noc(/C=C/c2ccco2)c1S(=O)(=O)N1CCC(C(=O)N2c3ccccc3CC2C)CC1 (centres undefined)	x	-2.0
FC(F)(F)c1nc(N2CCCC2)nc2c1CCCCC2	x	-3.5
COc1ccc(S(=O)(=O)c2ccc(OC)cc2)cc1	-0.4	-4.0
Cc1noc(C)c1NC(=O)Nc1cccc2c1O[C@@H](CN(C)Cc1ccccc1)[C@H](C)CN([C@H](C)CO)C2=O	x	0.3
CC(=O)N1c2ccccc2C(CSc2nnc(-c3ccccc3)o2)=CC1(C)C	x	7.2
O=C(N1CCCCC1)C1(S(=O)(=O)c2ccc(Cl)cc2)CC1	x	-1.9
Nc1nnnn1CC(=O)N(Cc1ccco1)C1(C(=O)Nc2ccccc2)CCCCC1	-0.1	1.7

# Entries of single compounds, quoted from the list.
# Cc1cc(C)c(C#N)c(SCC(=O)N2CCCCC2)n1 is listed with A1 inhib = 1.2; BJeLR viability = 11
# Cc1cccn2c(=O)c3cc(C(=O)N4c5ccccc5CC4C)n(C)c3nc12 (centres undefined) is listed with A1 inhib = 0.3; BJeLR viability = 1.9

# (list continues)
Structure	A1 inhib	BJeLR viability
C[C@H]1CN([C@@H](C)CO)C(=O)c2cccc(NS(=O)(=O)c3cccs3)c2O[C@H]1CN(C)C(=O)Nc1ccccc1	x	2.6
C[C@H](CO)N1C[C@H](C)[C@@H](CN(C)Cc2ccc(C(F)(F)F)cc2)Oc2c(NS(=O)(=O)c3ccccc3)cccc2C1=O	x	0.5
COc1ccc(NC(=O)N(C)C[C@H]2Oc3c(NC(=O)Nc4ccc(F)cc4)cccc3C(=O)N([C@@H](C)CO)C[C@H]2C)cc1	x	0.3
CCOC(=O)c1cnc2c(c(C3CC3)nn2C)c1N1CCOCC1	-0.1	-9.9
CN(C(=O)Nc1ccccc1)C1CCCCC1	-0.9	1.1
COC(=O)c1cc(=O)n2c(c1C(=O)c1ccc(Cl)cc1)SCC2	0.0	-4.1
CCSC1=N/C(=C\c2ccc(C(=O)O)cc2)C(=O)S1	-1.0	-5.3
Cc1ccc(S(=O)(=O)Nc2cccc3c2O[C@H](CN(C)Cc2ccccc2)[C@@H](C)CN([C@@H](C)CO)C3=O)cc1	x	0.4
O=C(O)CCC(=O)Cc1ccccc1	0.1	8.7
C[C@H](CO)N1C[C@H](C)[C@@H](CN(C)Cc2ccc(Oc3ccccc3)cc2)Oc2ccc(NC(=O)c3ccncc3)cc2C1=O	0.9	-1.6

# (more compounds)
Structure	A1 inhib	BJeLR viability
C[C@H](CO)N1C[C@H](C)[C@@H](CN(C)Cc2ccc3c(c2)OCO3)Oc2c(NC(=O)C3CCOCC3)cccc2C1=O	x	6.1
COc1ccc(NC(=O)Nc2ccc3c(c2)C(=O)N([C@@H](C)CO)C[C@H](C)[C@@H](CN(C)S(=O)(=O)c2cccs2)O3)cc1	0.5	-3.5
C[C@H](CO)N1C[C@H](C)[C@@H](CN(C)S(=O)(=O)c2ccc(Cl)cc2)Oc2ccc(NC(=O)Nc3ccc(F)cc3)cc2C1=O	0.8	5.0
COc1ccc(C(=O)N2c3ccccc3CCc3ccccc32)cc1	0.7	-6.3
CC1CCCCC1NC(=O)CCSCc1cccc(Cl)c1 (centres undefined)	2.1	0.7
C[C@H]1CN([C@@H](C)CO)C(=O)c2cc(NS(=O)(=O)c3ccc(F)cc3)ccc2O[C@H]1CN(C)C(=O)NC1CCCCC1	-0.8	-2.5
CC(C)NC(=O)Nc1ccc2c(c1)C(=O)N([C@@H](C)CO)C[C@@H](C)[C@H](CN(C)Cc1ccc(C(F)(F)F)cc1)O2	-0.3	-1.0
C[C@@H]1CN([C@@H](C)CO)C(=O)c2cc(NC(=O)CCN3CCOCC3)ccc2O[C@H]1CN(C)S(=O)(=O)c1cccs1	0.2	3.9
C[C@H](CO)N1C[C@H](C)[C@@H](CN(C)Cc2ccc(C(=O)Nc3ccccc3N)cc2)Oc2ccc(NC(=O)CCN3CCOCC3)cc2C1=O	x	-3.9
C[C@@H]1CN([C@@H](C)CO)C(=O)c2cccc(NC(=O)Nc3cccc4ccccc34)c2O[C@H]1CN(C)C(=O)Nc1ccc(F)cc1	x	-6.7

# Next section:
Structure	A1 inhib	BJeLR viability
O=S(=O)(c1ccccc1)N(Cc1ccccc1)Cc1ccccc1	-0.3	11
CCc1ccc(CN2CCN(Cc3ccc4c(c3)OCO4)CC2)cc1	-0.5	-3.0
Cc1c(C(=O)N(Cc2ccccc2)Cc2cccnc2)cnn1-c1ccc(F)cc1	0.6	7.9
C[C@@H]1CN([C@@H](C)CO)C(=O)c2cccc(NS(C)(=O)=O)c2O[C@@H]1CN(C)Cc1ccc(Cl)c(Cl)c1	x	-1.7
COc1cccc(C(=O)NCCN2CCOCC2)c1	0.2	-5.1
CCOc1ccc(Nc2nc(C3(C)CC4(CC(C)(C)OC4=O)C(=O)O3)cs2)cc1 (centres undefined)	-1.6	5.6
C[C@@H]1CN([C@H](C)CO)C(=O)c2cccc(NS(C)(=O)=O)c2O[C@H]1CN(C)C(=O)Nc1ccccc1	x	4.3
COc1cccc(NC(=O)CCn2nc(-c3ccccc3OC)c3c(C)cc(C)nc32)c1	-0.5	0.8
Cc1ccc(S(=O)(=O)N2C3C=CC(C3)C2C(=O)O)cc1 (centres undefined)	0.5	-6.2
COc1ccc(CC(=O)N2CCc3ccccc32)cc1	-3.7	1.9

# (more compounds)
Structure	A1 inhib	BJeLR viability
NCc1ccc2cc[nH]c(=O)c2c1	x	0.1
CCOc1ccc2c3c(c(=O)oc2c1C)CCC3	-0.6	0.0
Cc1noc(C)c1NC(=O)N(C)C[C@@H]1Oc2ccc(NS(=O)(=O)c3ccc(F)cc3)cc2C(=O)N([C@@H](C)CO)C[C@@H]1C	-0.7	-2.5
CSc1cc(C(F)(F)F)c(C(=O)Nc2c(C)cccc2C)cn1	0.3	2.3
Cc1noc(C)c1NC(=O)Nc1cccc2c1O[C@H](CN(C)Cc1ccc(Cl)c(Cl)c1)[C@@H](C)CN([C@@H](C)CO)C2=O	x	-3.6
NC(=O)C1CCN(C(=O)c2cccc(Cl)c2)CC1	1.0	-6.9
COc1cc(CC2COC(c3ccc(O)c(OC)c3)C2COC(C)=O)ccc1O (centres undefined)	-0.7	-4.2
COc1ccc(S(=O)(=O)Nc2ccc3c(c2)C(=O)N([C@H](C)CO)C[C@@H](C)[C@@H](CN(C)C)O3)cc1	-0.2	-3.2
COc1ccc(CN(C)C[C@@H]2Oc3c(NC(=O)c4cc(C)nn4C)cccc3C(=O)N([C@H](C)CO)C[C@@H]2C)cc1	x	-0.7
O=C(CSc1ccc(-c2cccs2)nn1)c1ccccc1	-3.7	-0.2

# (continued)
Structure	A1 inhib	BJeLR viability
C[C@H]1CN([C@@H](C)CO)C(=O)c2cccc(NC(=O)c3cnccn3)c2O[C@H]1CN(C)C(=O)Nc1cccc2ccccc12	x	0.5
CC1(C)C=CC(=O)[C@@]2(C)C1CC(=O)[C@]1(C)C2CC[C@@]2(C)[C@H](c3ccoc3)OC(=O)C3OC321 (some centres undefined)	0.0	-6.7
CCOC(=O)c1[nH]c2cc(OC)c(OC)cc2c1N1C(=O)CCC1=O	0.3	4.7
COc1ccc(S(=O)(=O)N(C)C[C@H]2Oc3ccc(NS(=O)(=O)c4cn(C)cn4)cc3C(=O)N([C@H](C)CO)C[C@H]2C)cc1	0.5	6.1
CCCOC(=O)COc1ccc2c(=O)c(-c3ccccc3OC)coc2c1	1.4	0.9
CC(=O)Oc1c(S(=O)(=O)c2ccccc2)c(C)nn1-c1ccccc1	x	-1.5
CCOC(=O)C1CCN(C(=O)c2ccc(CC)cc2)CC1	0.7	-1.6
CC(C)NC(=O)N(C)C[C@H]1Oc2c(NC(=O)c3ccc(-c4nccs4)cc3)cccc2C(=O)N([C@H](C)CO)C[C@H]1C	x	5.5
COCCN1C(=O)c2ccccc2C(C(=O)Nc2ccc(C(C)C)cc2)C1c1ccc(F)cc1 (centres undefined)	x	-3.5
Cc1ccc(NC(=O)c2ccc(Oc3ccc(C(=O)Nc4ccc(C)cc4)cc3)cc2)cc1	x	1.7

# (more compounds)
Structure	A1 inhib	BJeLR viability
COc1cc(/C=C2/SC(=Nc3ccccc3)N(CCc3ccccc3)C2=O)ccc1OCC(N)=O	-0.8	-5.6
O=C(NC1CCN(Cc2ccccc2)CC1)c1ccc(NS(=O)(=O)c2cccs2)cc1	x	7.2
CC1=NN(C(=O)COc2cc(C)cc(C)c2)C(O)(C(F)(F)F)C1 (centres undefined)	-0.4	7.8
Cc1cc(C(=O)Nc2cccc3c2O[C@@H](CN(C)Cc2ccncc2)[C@@H](C)CN([C@@H](C)CO)C3=O)n(C)n1	x	-5.9
CC1(C)CC[C@]2(C(=O)O)CC[C@]3(C)C(=CCC4[C@@]5(C)CC[C@H](O[C@@H]6O[C@H](CO)[C@@H](O)[C@H](O)[C@H]6O)C(C)(C)C5CC[C@]43C)[C@@H]2C1 (some centres undefined)	-0.4	1.1
COc1ccc(N2CC(C(=O)OCC(=O)Nc3ccccc3C(F)(F)F)CC2=O)cc1 (centres undefined)	1.1	-2.3
C[C@@H]1CN([C@@H](C)CO)C(=O)c2cc(NC(=O)Cc3cn(C)c4ccccc34)ccc2O[C@@H]1CN(C)Cc1ccccc1	1.2	-1.5
C[C@@H]1CN([C@@H](C)CO)C(=O)c2cc(NC(=O)C3CC3)ccc2O[C@H]1CN(C)Cc1ccc(C(=O)O)cc1	0.3	-7.5
Cc1cccc2c1nc1s/c(=C/c3cn[nH]c3-c3ccccc3)c(=O)n12	0.9	-3.1
COc1ccc(S(=O)(=O)Nc2cccc3c2O[C@@H](CN(C)Cc2ccc(Cl)c(Cl)c2)[C@H](C)CN([C@H](C)CO)C3=O)cc1	x	-2.2

# Of the compounds above, 3 contain a furan ring, fused or not:
Structure	A1 inhib	BJeLR viability
Cc1noc(/C=C/c2ccco2)c1S(=O)(=O)N1CCC(C(=O)N2c3ccccc3CC2C)CC1 (centres undefined)	x	-2.0
Nc1nnnn1CC(=O)N(Cc1ccco1)C1(C(=O)Nc2ccccc2)CCCCC1	-0.1	1.7
CC1(C)C=CC(=O)[C@@]2(C)C1CC(=O)[C@]1(C)C2CC[C@@]2(C)[C@H](c3ccoc3)OC(=O)C3OC321 (some centres undefined)	0.0	-6.7

# Carrying on:
Structure	A1 inhib	BJeLR viability
Cc1ccc(S(=O)(=O)Nc2cccc3c2O[C@@H](CN(C)S(=O)(=O)c2c(C)noc2C)[C@@H](C)CN([C@H](C)CO)C3=O)cc1	x	1.9
C[C@]12CCC3c4ccc(OS(=O)(=O)O)cc4CCC3C1CCC2=O (some centres undefined)	-0.5	-1.3
C[C@H](CO)N1C[C@H](C)[C@H](CN(C)C)Oc2c(NS(=O)(=O)c3ccc(Cl)cc3)cccc2C1=O	x	-6.7
CC(=O)O[C@@H]1C[C@@H](C)[C@](O)(CCc2ccoc2)[C@]23CCC[C@](C)(C(=O)OC2)C13 (some centres undefined)	0.6	-0.3
C[C@@H]1CN([C@@H](C)CO)C(=O)c2cc(N(C)C)ccc2O[C@@H]1CN(C)Cc1ccncc1	-0.3	-3.5
NS(=O)(=O)c1cc(C2(O)NC(=O)c3ccccc32)ccc1Cl (centres undefined)	-0.1	3.8
C[C@@H]1CN([C@H](C)CO)C(=O)c2cc(NC(=O)C3CC3)ccc2O[C@@H]1CN(C)Cc1ccc2c(c1)OCO2	-0.3	-1.0
C[C@H](CO)N1C[C@H](C)[C@@H](CN(C)S(=O)(=O)c2ccccc2)Oc2c(NC(=O)C3CCCCC3)cccc2C1=O	x	-2.2
COc1cccc(C(=O)N2CCCCCC2)c1	0.8	-0.7
C[C@@H]1CN([C@H](C)CO)C(=O)c2cc(NC(=O)Nc3ccc4c(c3)OCO4)ccc2O[C@@H]1CN(C)S(=O)(=O)c1ccccc1	-1.0	5.5

# Next part:
Structure	A1 inhib	BJeLR viability
CC1CC(C)(C)NC(=S)N1CCCC(=O)N1CCN(c2ccccc2)CC1 (centres undefined)	x	-0.7
C[C@H]1CN([C@@H](C)CO)C(=O)c2cccc(NC(=O)c3cnccn3)c2O[C@@H]1CN(C)Cc1ccc(C(=O)O)cc1	x	1.1
O=c1cc(C(F)(F)F)nc(Cc2c(Cl)cccc2Cl)[nH]1	0.5	-2.3
COC(=O)c1cc(O)c(C(=O)c2c(O)cccc2C(=O)O)c(O)c1	-0.6	-12
C[C@@H]1CN([C@@H](C)CO)C(=O)c2cc(NC(=O)CCCCCC(=O)Nc3ccccc3N)ccc2O[C@@H]1CN(C)S(=O)(=O)c1cccs1	x	4.7
CCC(=O)c1ccc(OC(=O)c2cn(-c3ccccc3)nc2-c2ccccc2)cc1	x	-2.7
C[C@@H]1CN([C@@H](C)CO)C(=O)c2cc(NC(=O)CCN3CCOCC3)ccc2O[C@H]1CN(C)Cc1ccc(-c2ccccc2)cc1	-0.3	0.2
